Bioassay records deposited in PubChem BioAssay by National Center for Advancing Translational Sciences (NCATS).
miR-21 reporter = qHTS Assay for Modulators of miRNAs and/orActivators of miR-21; HeLa miR-21 FLuc reporter, luciferase, 48 h; Potency, µM (doses to about 38.3 µM), inactives show top-dose reporter change, positive = more light; 340,000 tested, under 10 active; AID 2288, 2010; active = well fitted rising curve with a large enough effect; inconclusive = small, poorly fitted or top-dose-only effect; inactive = no such curve, though single readings can be large or run the other way;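 further: % of control where 0% means no effect; miR-21 action dims this reporter so a rising signal means less miR-21 action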
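Luminescence from a firefly luciferase reporter carrying a miR-21 binding site downstream, stably expressed under a CMV promoter in HeLa cells that make miR-21 endogenously, reports miRNA modulation after 48 h compound exposure up to approximately 40uM final.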
Rango-impB inh = qHTS Assay for Inhibitors of Rango (Ran-regulated importin-beta cargo) - Importin beta complex formation; Importin subunit beta-1 (Homo sapiens), Q14974; Rango CFP/YFP FRET sensor + importin beta, 45 min; Potency, µM (titrated, usually from 92.2 µM), inactives show at the top dose inhibition of complex formation; 340,000 compounds, 0.031% hits; AID 540263, 2011; active = rising FRET ratio curve, often small or poorly fitted; inconclusive = mostly compound fluorescence or quenching in the first reads; inactive = flat curves in all reads;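 further: potency means the concentration at half of the fitted maximal effect; 0% = DMSO wells and 100% = buffer wells lacking importin beta; nearly all actives have a fitted effect of over 15% in size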
Target sequence (Q14974 whole entry, looked up): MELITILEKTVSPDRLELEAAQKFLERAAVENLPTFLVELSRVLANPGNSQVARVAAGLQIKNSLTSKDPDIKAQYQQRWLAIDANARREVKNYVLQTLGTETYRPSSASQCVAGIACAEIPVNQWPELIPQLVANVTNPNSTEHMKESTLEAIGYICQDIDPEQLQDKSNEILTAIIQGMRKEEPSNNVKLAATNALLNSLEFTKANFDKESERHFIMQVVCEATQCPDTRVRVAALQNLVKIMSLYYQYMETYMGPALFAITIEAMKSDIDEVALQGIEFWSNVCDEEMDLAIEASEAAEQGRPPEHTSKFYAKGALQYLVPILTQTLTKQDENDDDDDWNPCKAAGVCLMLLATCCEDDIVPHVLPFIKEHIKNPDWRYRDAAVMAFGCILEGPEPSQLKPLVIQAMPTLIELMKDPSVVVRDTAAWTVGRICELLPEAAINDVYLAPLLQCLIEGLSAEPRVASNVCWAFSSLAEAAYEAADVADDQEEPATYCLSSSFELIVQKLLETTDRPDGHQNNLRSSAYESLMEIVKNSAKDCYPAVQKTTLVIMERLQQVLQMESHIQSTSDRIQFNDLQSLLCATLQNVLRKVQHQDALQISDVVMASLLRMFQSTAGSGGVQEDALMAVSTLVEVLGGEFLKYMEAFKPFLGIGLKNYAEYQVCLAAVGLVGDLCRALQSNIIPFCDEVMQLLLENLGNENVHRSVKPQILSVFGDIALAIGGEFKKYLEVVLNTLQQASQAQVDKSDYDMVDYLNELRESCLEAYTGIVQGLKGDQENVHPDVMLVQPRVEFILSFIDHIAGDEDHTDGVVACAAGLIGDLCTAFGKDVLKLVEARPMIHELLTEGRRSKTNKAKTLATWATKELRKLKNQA
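FRET biosensor (snurportin 1 IBB flanked by EYFP and cerulean), 50 nM, with compound 5 min, then 0.125 microM importin beta in PBS, 1 mM DTT, 0.02% Tween-20, 0.1% BSA. CFP/YFP ratio read after 45 min at room temperature; pre-read flags interference.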
GLA inh pH 4.5 = qHTS Assay for Inhibitors of Human alpha-Galactosidase at pH 4.5; 230,000 tested, under 10 active; activity change, negative = inhibition, % at 105 µM; AID 1467, 2008; Alpha-galactosidase A (Homo sapiens), P06280; purified enzyme, 4-MU-alpha-Gal fluorescence, pH 4.5; inconclusive = small, poorly fitted or top-dose-only inhibition, or a rising curve; inactive = flat fitted curve, though single readings scatter; no compound was filed as active;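 further: 0% = full activity with enzyme and -100% = basal without enzyme; dose as in the result columns while the protocol names 77 µM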
Rango release inh = qHTS Assay for Inhibitors of RanGTP induced Rango (Ran-regulated importin-beta cargo) - Importin beta complex dissociation; Snurportin-1 (Homo sapiens) + GTP-binding nuclear protein Ran (Homo sapiens) + Importin …; Biochemical FRET Rango-importin beta, RanGTP-induced dissociation; Potency, µM (series often up to 46.1 µM), for inactives: at the highest dose activity change, negative = inhibition; 340,000 compounds, 0.071% hits; active means falling FRET ratio curve, often poorly fitted, with flat reads before Ran was added; inconclusive means other falling curves, or compound fluorescence or quenching; inactive means flat or rising ratio curve;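 further: potency means the concentration at half of the fitted maximal effect; % of control where 0% means no effect; nearly all actives have a fitted effect of over 45% in size; -100% = wells without RanGTP and RCC1; the record marks most hits as doubtful in a second field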
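Two FRET readings bracket the reaction: one 5 min after compound meets Rango–importin beta, another 45 min after RanGTP-RCC1 (0.6 uM Ran, 0.2 uM RCC1, 2 mM GTP) is added. Only the second defines inhibition.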
Starred values were filed as active, the others as inactive; ? = inconclusive; nt = no result given; & = joins results of further samples. Only part of the results is shown; count on the stated rates, not on these rows.

SMILES	miR-21 reporter	Rango-impB inh	GLA inh pH 4.5	Rango release inh
COc1ccc2c(C(=O)c3ccc(C)cc3)n(CCCC(N)=O)[n+]([O-])c2c1	nt	-0.1%	nt	-11%
CCc1cc(C(=O)N/N=C/c2c(C)[nH]c3ccccc23)cs1	-15%	-2.1%	3	1%
CCOC(=O)c1ccccc1NC(=O)C=C(C)C	2%	0.8%	3	-8%
O=C(CCCn1c(=S)[nH]c2ccccc2c1=O)N1CCOCC1	-2%	-5.7%	-2	3%
CCOC(=O)C(=O)c1csc(NC(=O)COc2ccc(N(C)S(=O)(=O)c3ccc(F)cc3)cc2)n1	-2%	2.1%	-2	16%
CC(C)(O)C#Cc1ccc(CN2CCCC(CO)(Cc3cccc(Cl)c3)C2)cc1 (centres undefined)	12%	-6.9%	-8	-10%
Cc1ccc(NC(=O)COC(=O)COc2ccc3ccc(=O)oc3c2)cc1[N+](=O)[O-]	nt	-0.7%	nt	31%
CCNC(=O)NC1c2ccccc2CSc2ccccc21 (centres undefined)	nt	2.2%	nt	22%
COc1ccc(NC(=O)CSc2c3c(nc4ccccc24)CCC3)c(OC)c1	?	2.8%	4	3%
COc1cccc(OC)c1OCCNCC1COc2ccccc2O1 (centres undefined)	nt	-2.7%	0&-2	1%
O=C(Cn1nnc(-c2ccc(Cl)cc2)n1)NCc1ccco1	-1%	-5.9%	5	12%
Cc1ccc(C)c(NC(=O)CCc2nnc3ccc(N4CCCC4)nn23)c1	5%	4.4%	nt	0%
CC(=O)Oc1cccc(N2C(=O)c3ccc(C(=O)Nc4c[nH]c(=O)[nH]c4=O)cc3C2=O)c1	-4%	0.4%	-25	-13%
CCc1nnc(NC(=O)CSc2nnc(Cc3ccccc3)n2-c2ccc(OC)cc2)s1	1%	-3.7%	-1	-24%
CCn1cc(Br)c(C(=O)Nc2nccs2)n1	-19%	-2.7%	8	5%
O=C(CCc1ccccc1)NCCCNC(=O)CCc1ccccc1	nt	-1.6%	nt	1%
Cc1cccc(NC(=O)c2cnc3sccn3c2=O)c1	-59%	-0.1%	3	10%
CN(Cc1nc2ccccc2c(=O)[nH]1)C(=O)c1cc2c(s1)CCCCC2	nt	-0.7%	nt	-10%
CCOC(=O)c1cc(=O)cc(C(=O)OCC)o1	-1%	4.5%	-7	-1%
CC(NC(=O)CN1CCOCC1)c1ccc(F)cc1 (centres undefined)	2%	1.2%	nt	16%
CCCCCNC(=O)c1cccc(S(=O)(=O)N2CC3(C)CC2CC(C)(C)C3)c1 (centres undefined)	nt	-2.7%	nt	-14%
N#C/C(=C\c1cc(Cl)cc(Cl)c1O)C(=O)NC1CCCCC1	-3%	?	3	6.5µM*
COc1ccc(NC(=O)CCCCCN2C(=O)c3ccccc3C2=O)c(OC)c1	-2%	-3.1%	nt	2%
Cc1cccc(NC(=S)NCCc2ccc(S(N)(=O)=O)cc2)c1C	-8%	-4.2%	-2	12%
O=C(Nc1ccc(S(=O)(=O)N2CCOCC2)cc1)c1ccc([N+](=O)[O-])cc1Cl	4%	-0.6%	nt	24%
O=C(COc1ccc2c3c(c(=O)oc2c1)CCC3)NC1CCCCC1	-15%	2.6%	-7	-9%
COC(=O)c1ccc(CSc2nccn2C)cc1	-40%	3.1%	-6	34%
O=[N+]([O-])c1ccc(CSc2ncnc3ccccc23)cc1	-15%	-1.2%	1	-9%
CSc1nccc(N/N=C/c2ccccc2)n1	-56%	0.7%	nt	0%
O=C(COC(=O)c1cccnc1Cl)Nc1cccc(S(=O)(=O)N2CCOCC2)c1	nt	0.2%	nt	0%
N#Cc1nc(-c2ccccc2F)oc1N1CCCC1	-9%	-0.4%	10	-1%
COc1ccc(N(CC(=O)N2CCN(Cc3ccc4c(c3)OCO4)CC2)S(=O)(=O)c2ccc(F)cc2)cc1	0%	0.0%	-14	5%
Cc1cc(C)n(/N=C/c2cc(Cl)cc(Cl)c2O)c(=O)c1	-3%	?	2	?
Cc1ccc(C)c(N2N=C(C(=O)OCc3nnc(-c4cccs4)o3)CCC2=O)c1	nt	-0.7%	nt	?
COc1cc2c3c(c1)C1(C(=O)N3C(C)(C)C=C2C)C(C#N)=C(N)Oc2cc(O)ccc21 (centres undefined)	1%	5.5%	8	-17%
CCc1ccccc1-n1c(SCC(=O)N2CCCC2)nnc1-c1ccccn1	-1%	1.2%	-7	2%
COc1ccc2[nH]c(C(=O)O)c(CCNC(C)=O)c2c1	1%	0.3%	0	11%
CC(C)C(NC(=O)c1ccc(C(C)(C)C)cc1)C(=O)NCC(c1ccccc1)N(C)C (centres undefined)	-13%	-1.0%	-13	-15%
CCOc1ccc(-n2c(C)c(C(=O)OC)c3cc(O)ccc32)cc1	17%	-1.9%	4	1%
COc1ccc(CN(C)C(=O)c2[nH]c(C)c(C(C)=O)c2C)cc1F	2%	-0.8%	nt	-3%
C1=CCC(CN2CCN(C3CCCCCC3)CC2)CC1 (centres undefined)	2%	2.7%	-8	-7%
CCC(=O)Nc1cccc(-c2nnc(-c3cccc(NC(=O)CC)c3)o2)c1	-1%	-0.7%	0	7%
COc1ccc(CCNC(=O)c2cc(S(=O)(=O)N3CCCC3)cn2C)cc1OC	-2%	-1.5%	nt	6%
COc1ccccc1/C=C/C(=O)Oc1cccc2cccnc12	-3%	5.3%	4	-1%
CC1Sc2ccc(S(=O)(=O)CCC(=O)Nc3ccccc3Cl)cc2NC1=O (centres undefined)	11%	2.8%	nt	2%
CCOC(=O)N1CCN(Cc2ccccc2Cl)CC1	-12%	4.6%	7	0%
O=C(C[C@@H]1C/C=C\CCCC(=O)OC[C@@H]2CCCN2C1=O)NCCO	nt	-3.1%	nt	4%
Cc1cc(C)nc(NS(=O)(=O)c2ccc(NC(=O)c3nn(-c4ccccc4)ccc3=O)cc2)n1	-7%	-2.0%	nt	-17%
CCN(c1ccccc1)S(=O)(=O)c1ccc(Cl)c(C(=O)O)c1	-2%	-0.9%	-20	-4%
CC(=O)c1ccc(OCCCC(=O)Nc2cccc(-c3nn[nH]n3)c2)cc1	1%	1.9%	nt	-8%
Cc1ccc(C)c(COC(=O)c2cccc(S(=O)(=O)N3CCCC3)c2)c1	nt	-0.2%	nt	8%
O=C(c1ccc([N+](=O)[O-])cc1)N1CCN(C(=O)c2ccco2)CC1	0%	-1.3%	7	5%
CCC(C)(C)C1CCc2[nH]nc(C(=O)NN)c2C1 (centres undefined)	-26%	1.8%	0	16%
COc1ccc(COc2ccccc2C(N)=O)cc1F	-46%	0.1%	-2	-2%
CN(C(=O)CN1C(=O)/C(=C/c2ccc(F)cc2)SC1=S)C1CCS(=O)(=O)C1 (centres undefined)	-1%	2.6%	nt	-1%
Cc1cc(C)c2c(-n3cccc3)nn(CC#N)c2n1	-5%	6.1%	-1	1%
O=C(Nc1ccc(N2CCOCC2)cc1)c1ccc(COc2ccccc2)cc1	3%	1.7%	nt	-20%
CCCCCOc1ccc(Br)cc1/C(C)=N/NC1=NCCN1	?	3.2%	-9	4%
Cc1ccc(SCC(=O)NCCSCc2ccccc2)cc1	-12%	-0.8%	-13	16%
CC1(C)Cc2ccccc2C(N)=C1C#N	0%	-1.8%	-2	22%

Carrying on:
SMILES	miR-21 reporter	Rango-impB inh	GLA inh pH 4.5	Rango release inh
O=C(O)c1ccc(Br)c(S(=O)(=O)N2CCCC2)c1	-5%	5.5%	-1	-13%
CCOc1cc(C2C(C(=O)N3CCCCC3)=C(C)NC3=C2C(=O)CC(C)(C)C3)ccc1O (centres undefined)	-2%	1.6%	1	-8%
Cc1ccc(S(=O)(=O)N2CCCC2CNC(=O)c2ccccc2)cc1 (centres undefined)	nt	3.0%	nt	-1%
COc1cccc(CN2CCN(C(=O)CC(C)C)CC2)c1	-7%	-0.3%	-5	31%
CN(C1(C)CCS(=O)(=O)C1)S(=O)(=O)c1ccc(F)cc1 (centres undefined)	1%	-3.4%	nt	9%
COc1cccc(N(CC(=O)NC2CCCC2)C(=O)Cn2nnc(-c3ccc(C)o3)n2)c1	6%	-1.2%	nt	13%
CCc1ccc(NC(=O)CC2C(=O)N(c3ccc(OC)cc3)C(=O)N2CCOC)cc1 (centres undefined)	-7%	0.2%	nt	6%
O=c1c2ccccc2oc2ccc(Oc3ccccc3)cc12	-60%	0.9%	nt	0%
CCN1CCN(CCNC(=O)c2ccc3c(c2)NC(=O)/C(=C\c2ccc(OC)c(OC)c2)S3)CC1	-35%	2.1%	nt	-9%
COc1ccc(C2=CC3=C(Br)C(=O)C(C)(OC(=O)c4ccco4)C(=O)C3=CO2)cc1 (centres undefined)	0%	?	-1&-5	?
COc1cc(CN2CCN(c3cccc(C)c3C)CC2)cc(OC)c1O	-7%	0.5%	4	-3%
COc1ccc(OCCCN2CCCC(C)C2)cc1 (centres undefined)	-5%	-2.9%	-1	1%
Cc1csc(=O)n1CC(=O)OCC(=O)N(CC(C)C)c1c(N)n(Cc2ccccc2)c(=O)[nH]c1=O	nt	-1.7%	nt	-7%
CCOc1ccc(CCNC(=O)COC(=O)Cc2ccc(F)cc2)cc1OCC	nt	-2.4%	nt	3%
CCOc1ccc(NC(=O)c2cccc(NC3=NC4CS(=O)(=O)CC4S3)c2)cc1 (centres undefined)	-6%	2.1%	nt	11%
OCc1nc2ccccc2n1Cc1c(F)cccc1Cl	-13%&-11%	-1.1%	2	-5%
Cc1cc(OCCCCN2C(=O)NC(C)(C)C2=O)ccc1[N+](=O)[O-]	-8%	-0.2%	3	-5%
COc1ccc(/C=C2\N=C(C)N(c3ccc4ccccc4c3)C2=O)cc1OC	-4%	?	-1	?
COc1ccc(N(C(=O)Cn2nnc3ccccc32)C(C(=O)NC(C)(C)C)c2ccc(OC)c(O)c2)cc1 (centres undefined)	-2%	0.9%	5	-16%
Cc1cc(C)nc(-n2nc(C)cc2NC(=O)CNCc2ccccc2)n1	-6%	1.8%	10	0%

In another format: seven of the compounds above.
compound,miR-21 reporter,Rango-impB inh,GLA inh pH 4.5,Rango release inh
O=C(O)c1ccc(Br)c(S(=O)(=O)N2CCCC2)c1,-5%,5.5%,-1,-13%
CCOc1cc(C2C(C(=O)N3CCCCC3)=C(C)NC3=C2C(=O)CC(C)(C)C3)ccc1O (centres undefined),-2%,1.6%,1,-8%
Cc1ccc(S(=O)(=O)N2CCCC2CNC(=O)c2ccccc2)cc1 (centres undefined),nt,3.0%,nt,-1%
COc1cccc(CN2CCN(C(=O)CC(C)C)CC2)c1,-7%,-0.3%,-5,31%
CN(C1(C)CCS(=O)(=O)C1)S(=O)(=O)c1ccc(F)cc1 (centres undefined),1%,-3.4%,nt,9%
COc1cccc(N(CC(=O)NC2CCCC2)C(=O)Cn2nnc(-c3ccc(C)o3)n2)c1,6%,-1.2%,nt,13%
CCc1ccc(NC(=O)CC2C(=O)N(c3ccc(OC)cc3)C(=O)N2CCOC)cc1 (centres undefined),-7%,0.2%,nt,6%

The list goes on.
SMILES	miR-21 reporter	Rango-impB inh	GLA inh pH 4.5	Rango release inh
CCOC(=O)CC(=O)NC(CC(=O)OC)c1ccc(Br)cc1 (centres undefined)	1%	5.1%	4	0%
O=C(c1ccccc1F)N1CCN(c2ccc([N+](=O)[O-])c(N3CCOCC3)c2)CC1	-1%	0.0%	0	4%
CC(=O)c1cccc(NC(=O)COC(=O)CC2CC3CCC2C3)c1 (centres undefined)	nt	-2.0%	nt	-18%
CCCC(=O)c1ccc(N2CCN(S(=O)(=O)c3ccc(C)cc3)CC2)c(F)c1	5%	-0.3%	0	-14%
Cc1ccccc1CN1C[C@@H]2C[C@@H](c3cnc(N4CCOCC4)s3)N3CCC[C@@]23C1=O	29%	1.2%	6	-21%
CCOC(=O)CN(C(=O)COc1nc(-c2ccccc2)cc(C)c1C#N)c1cccc(OC)c1	5%	5.7%	1	-13%
COc1ccc2nc3oc(C(=O)NC4CCN(Cc5ccccc5)CC4)cc3cc2c1	-32%	-2.8%	0	0%
Oc1ccccc1OCCOc1ccccc1OCCOc1ccccc1O	11%	-1.1%	-6	0%
